High-throughput results (PubChem BioAssay)
SARS PLpro yeast: qHTS of Yeast-based Assay for SARS-CoV PLP; S. cerevisiae expressing SARS-CoV PLpro, growth rescue; control for the full effect not named in the record; Potency, µM (doses to about 32.9 µM), inactives show at the top dose activity, positive = growth rescue; 0.19% of 330,000 active; note: 0% is about no effect; nearly all actives have a fitted effect of over 55% in size; growth read by luminescence after 48 h
RE007 growth inh: qHTS Assay for Inhibitors of the HIV-1 protein Vpr | S. pombe RE007 Vpr strain, BacTiter-Glo ATP luminescence, 24 h; control for the full effect not named in the record | Potency, µM (titrated, usually from 92.2 µM), without a hit: at the highest dose activity change, negative = less growth | 0.21% of 360,000 active | AID 651644, 2012; active = well fitted falling curve with a large enough effect; inconclusive = small, poorly fitted or top-dose-only effect; inactive = no such curve, though single readings can be large or run the other way;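 note: % is set by controls: 0 for no effect and ±100 for the full control effect; nearly all actives have a fitted effect of over 50% in size; the assay follows cell death caused by Vpr and the record does not say whether a fall means rescue or toxicity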
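Fission yeast RE007 carrying one integrated HIV-1 vpr copy, seeded at OD 0.01 in PMG+AL medium with 23 nL pinned compound. Grown 24 h at 30 degrees; viability read by BacTiter-Glo luminescence after 5 min.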
NS1 function inh: qHTS Assay for Inhibitors of Influenza NS1 Protein Function; 0.4% of 270,000 active; AID 2326, 2010; S. cerevisiae slowed by influenza A NS1, growth recovery by OD600; Potency, µM (top dose mostly 46.1 µM), for the others: top-dose activity, positive = more growth; note: actives are rising curves; nearly all actives have a fitted effect of over 50% in size
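A cell-based growth assay was used: compounds that relieve NS1-induced slow growth of budding yeast raise OD600. Assay medium was yeast nitrogen base with ammonium sulphate and -URA supplement, pH 6.0, with 2% galactose.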
Cruzain inh noDet: qHTS Assay for Promiscuous and Specific Inhibitors of Cruzain (without detergent); 2.3% of 200,000 active; Cruzipain (Trypanosoma cruzi), P25779; AID 1476, 2009; purified cruzain, Z-FR-AMC fluorescence, no detergent; Potency, µM, for the others: max response, negative = inhibition, hits mostly inhibitors; active = well fitted curve in the direction sought with a large enough effect; inconclusive = small, poorly fitted or top-dose-only effect, or another doubt; inactive = no such curve, though single readings can be large; an effect the other way counts as inactive or inconclusive;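 note: plate controls were enzyme without inhibitor for no effect and buffer without enzyme for full effect; nearly all actives have a fitted effect of over 40% in size; top concentration of the series not given in the record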
Target sequence (P25779 123-467 limits assumed): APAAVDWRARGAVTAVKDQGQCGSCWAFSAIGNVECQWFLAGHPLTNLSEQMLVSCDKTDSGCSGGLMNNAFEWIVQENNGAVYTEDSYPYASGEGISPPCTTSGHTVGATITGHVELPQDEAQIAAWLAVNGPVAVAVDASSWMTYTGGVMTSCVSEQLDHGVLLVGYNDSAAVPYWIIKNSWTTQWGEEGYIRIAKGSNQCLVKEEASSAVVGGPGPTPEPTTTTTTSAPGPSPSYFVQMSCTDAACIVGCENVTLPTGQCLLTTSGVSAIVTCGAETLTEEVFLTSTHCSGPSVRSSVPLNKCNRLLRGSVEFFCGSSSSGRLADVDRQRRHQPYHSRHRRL
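Detergent-free condition (0.00005% Triton X-100) in acetate buffer pH 5.5 with DTT. 1.5 nM enzyme and compound were pre-mixed 15 min, then 2 uM Z-FR-AMC substrate added; reaction progress from fluorescence change between first and third reads (60 s).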
LASV entry inh: qHTS for Inhibitors of binding or entry into cells for Lassa Virus; Lassa virus pseudotype entry inhibition, cell reporter; control for the full effect not named in the record; Potency, µM (doses to about 37.9 µM), inactives show at the top dose activity change, negative = inhibition, usual class: inhibitors; 1.2% of 300,000 active; active means well fitted inhibition curve with a large enough effect; inconclusive means small, poorly fitted or top-dose-only effect, or effect the other way; inactive means flat fitted curve, though single readings scatter; tested in HEK293 cells; note: % is set by controls: 0 for no effect and ±100 for the full control effect; nearly all actives have a fitted effect of over 50% in size; luciferase read-out
2A StopGo: High Throughput Screening for Foot and Mouth Disease Virus Antivirals; Potency, µM (titrated, usually from 57.9 µM), inactives show at the highest dose signal change, negative = less light; 1.2% of 410,000 active; human cells with a luciferase reporter of 2A StopGo recoding; control for the full effect not named in the record; active = well fitted falling curve with a large enough effect; inconclusive = small, poorly fitted or top-dose-only effect; inactive = no such curve, though single readings can be large or run the other way; tested in HEK293T cells; note: % is set by controls: 0 for no effect and ±100 for the full control effect; nearly all actives have a fitted effect of over 45% in size; luciferase light after 4 h
Marburg entry inh: qHTS for inhibitors of binding or entry into cells for Marburg Virus; Marburg virus pseudotyped entry inhibition, cell reporter; control for the full effect not named in the record; about a third of the inactives were read at about 46 µM; Potency, µM (top dose mostly 37.8 µM), without a hit: at the highest dose activity change, negative = inhibition, hits mostly inhibitors; 1.8% of 300,000 active; AID 540276, 2011; active = well fitted inhibition curve with a large enough effect; inconclusive = small, poorly fitted or top-dose-only effect, or effect the other way; inactive = flat fitted curve, though single readings scatter; tested in HEK293 cells; about a fifth of its hits are not listed in these tables; note: % is set by controls: 0 for no effect and ±100 for the full control effect; luciferase read-out
Cruzain inh Det: qHTS Assay for Promiscuous and Specific Inhibitors of Cruzain (with detergent); 0.43% of 200,000 active; purified cruzain, Z-FR-AMC fluorescence, 0.01% Triton; AID 1478, 2009; Cruzipain (Trypanosoma cruzi), P25779; Potency, µM, for inactives: max response, negative = inhibition, most hits filed as inhibitors; active = well fitted curve in the direction sought with a large enough effect; inconclusive = small, poorly fitted or top-dose-only effect, or another doubt; inactive = no such curve, though single readings can be large; an effect the other way counts as inactive or inconclusive;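 note: plate controls were neutral wells for no effect and buffer without enzyme for full effect; nearly all actives have a fitted effect of over 40% in size; top concentration of the series not given in the record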
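Detergent-containing arm of a paired screen for aggregation-based inhibition: 0.01% Triton X-100 present. Cruzain at 1.5 nM cleaved 2 uM Z-FR-AMC at pH 5.5 with 5 mM DTT; AMC fluorescence gain over 60 s measured activity.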
Numbers without * were called inactive; ? = inconclusive; . = no result given; & = joins results of further samples; [ ] = another dose, or the depositor's remark. Unless noted, calls come from the whole dose curve; as a rule, active means well fitted rising curve with a large enough effect; inconclusive means small, poorly fitted or top-dose-only effect; inactive means no such curve, though single readings can be large or run the other way. Potency is the fitted concentration of half-maximal effect. Rows were taken by chance; overall some 4.6% were active at least once.

Structure	Cruzain inh noDet	Marburg entry inh	LASV entry inh	Cruzain inh Det	RE007 growth inh	SARS PLpro yeast	NS1 function inh	2A StopGo
CC(=O)NC(CCCNC(=S)NC1CCCCC1)C(=O)O (stereo not given)	.	?	-7%	.	-9%	0%	5%	-8%
O=C(Nc1ccccn1)c1ccc([N+](=O)[O-])o1	-2%	-23%	-8%	-4.1%	?	10µM*	-23%	7%
CCC1CCCCN1C(=O)CSC1=NN2CCCC(=O)N=C2S1 (stereo not given)	.	?	6%[46.1 µM]	.	1%	2%	2%	-7%
CCc1cccc(C)c1NS(=O)(=O)Cc1ccccc1	.	12%	4%	.	8%	0%	10%	-20%
CC/C(O)=C1\C(=O)CCCC1=NCCc1c(C)[nH]c2ccc(C)cc12	.	.	.	.	7%	3%	-5%	-16%
COc1cccc(NC(=O)C2C3C=CC4(O3)C2C(=O)N(CCCN2CCC(C)CC2)C4C(=O)NC2CCCCC2)c1 (stereo not given)	.	15%[46.1 µM]	7%	.	-18%	-4%	-7%	9%
CCCCCCc1c(O)nc(SCCN2CCOCC2)[nH]c1=O	.	-2%[46.1 µM]	18%	.	1%	0%	10%	-21%
CC(=O)NC(CC(=O)NC1CCCCCC1)c1ccccc1 (stereo not given)	1%	3%	-8%	-0.5%	-24%	0%	2%	12%
CCCC(O)(c1ccc(Br)cc1)C(CN1CCOCC1)c1ccc(Cl)cc1 (stereo not given)	.	?	?	.	8%	-1%	4%	?
COc1ccccc1C(=O)C1CCCN(C(=O)c2cc(C(C)C)no2)C1 (stereo not given)	.	-6%[46.1 µM]	0%[46.1 µM]	.	-6%	-1%	9%	?
CC(C)Cn1c(N)c(C(=O)COC(=O)/C=C/c2ccccc2)c(=O)n(C)c1=O	.	10µM*	?	.	-14%	3%	.	16µM*
CCOc1ccccc1C(=O)N1CCOCC1	4%	24%[46.1 µM]	13%	-1.1%	16%	2%	8%	4%
CN(C)N(Cc1ccccc1)C(=O)C(O)(c1ccccc1)c1ccccc1	.	.	.	.	2%	-3%	-4%	?
C=CCn1c(=N)n(CC(O)COc2ccc(OC)cc2)c2ccccc21 (stereo not given)	-6%	?	-1%	0.3%	11%	-2%	4%	-19%
O=C(CN1C(=O)C2CCCCN2c2ccc(C(=O)N3CCCC3)cc21)NCc1cccc(F)c1 (stereo not given)	-4%	.	7%[46.1 µM]	-2.1%	.	.	.	23%
CCN(CC)CCNC(=O)c1ccc(NC(=O)c2cn(-c3ccccc3)nc2-c2cccs2)cc1	.	.	.	.	23%	-1%	2%	-22%
Cc1cccc(C)c1OC(=O)CSc1nnc(-c2cccs2)o1	4%	-1%[46.1 µM]	0%[46.1 µM]	-4.3%	.	.	.	1%
CCC(C)Sc1nnc(Cc2cc(=O)[nH]c(=O)[nH]2)n1-c1ccc(F)cc1 (stereo not given)	-13%	.	.	3.1%	-4%	4%	8.9µM*	-18%
CC(C)Cn1c(N)c(C(=O)COC(=O)c2cc(-c3ccco3)nc3ccccc23)c(=O)n(C)c1=O	?	.	.	-10%&-9.6%	-1%	0%	?	?
Cc1cc(C)n2nc(SCC(=O)N3CCN(c4ccccc4)CC3)nc2n1	.	19%	?	.	-6%	-2%	.	-11%
O=C(Nc1nnc(C2CCCCC2)s1)C1CC(=O)N(c2ccc(F)cc2)C1 (stereo not given)	.	10%[46.1 µM]	-16%	.	7%	-2%	4%	8%
COc1ccc(NC(=O)CN2CCN(c3ccc(C)cc3C)CC2)cc1	.	?	-21%	.	-9%	-7%	-15%	-14%
CCOCCCn1c(SCC(=O)NC(C)(C)C)nc2ccccc2c1=O	9%	9%	13%	-6.8%	12%	-1%	-9%	-6%
COCc1nc2ccccc2n1Cc1ccccc1C	.	?	9%[46.1 µM]	.	11%	1%	.	-20%
Cc1ccc(C(=O)NC(=S)NNC(=O)c2ccc([N+](=O)[O-])cc2)cc1	.	.	.	.	-7%	-7%	-25%	-19%
COc1ccccc1-n1c(-c2ccccc2)n[nH]c1=S	.	.	.	.	30%	0%	11%	9%
CCOc1ccc(OCC)c(NC(=O)CN(c2ccc(OC)cc2)S(=O)(=O)c2c(C)noc2C)c1	.	.	.	.	4%	8%	?	-11%
Cc1ccc2cc(CN(CC3CCCO3)S(=O)(=O)c3ccc4c(c3)OCCO4)c(=O)[nH]c2c1C (stereo not given)	.	2%&-29%	18%	.	-4%	.	-33%	29%
COc1ccc(OC)c2[nH]c(=O)c(CCNC(=O)C(=O)c3c(C)[nH]c4ccccc34)cc12	.	-17%[46.1 µM]	-21%[46.1 µM]	.	-6%	-3%	-17%	-20%
O=C(COC(=O)c1c(Cl)ccc(Cl)c1Cl)NCC1CCCO1 (stereo not given)	.	4%	?	.	-10%	-4%	.	-8%
CCc1ccccc1OCC(=O)Nc1cc(S(=O)(=O)N2CCOCC2)ccc1N1CCCCC1	.	?	?	.	-2%	2%	.	-8%
C#CCOCCOCCOCCNc1nc(N2CCN(C(=O)[C@H](CCC(=O)O)n3cc(C(N)CC(C)C)nn3)CC2)nc(N2CCN(C(=O)[C@H](CCC(=O)O)n3cc(C(N)[C@H](C)CC)nn3)CC2)n1 (stereo not given in full)	.	.	.	.	7%	0%	-6%	-8%
COc1ccccc1CNC(=O)C(=O)Nc1nccs1	.	1%[46.1 µM]	9%	.	-9%	0%	-1%	42%[activator]
Cc1ccc(Nc2ncnc3sc4c(c23)CCC(C)C4)cc1C (stereo not given)	-1%	0%[46.1 µM]	17%[46.1 µM]	1.4%	.	.	.	-14%
O=C(Nc1ccc2c(c1)OCCO2)C1CCC1	-5%	?	25%	3.7%	14%	3%	-1%	52%[activator]
Cc1ccccc1OCC(=O)N/N=C1\SCC(=O)N1Cc1ccccc1	-5%	2%	-3%	5.2%	-2%	3%	6%	-3%
COc1ccc(CCN(C)C(=O)c2cc(-c3ccccc3)nc3ccc(C)cc23)cc1OC	.	.	.	.	-2%	-5%	-5%	18%
CCCCn1c(N)c(N(CC(C)C)C(=O)c2cccc(S(=O)(=O)N3CCN(C(C)=O)CC3)c2)c(=O)[nH]c1=O	.	-6%	11%	.	-9%	1%	.	-22%
CC(C)[C@H](NC(N)=O)C(=O)NCCc1ccc(Cl)cc1	.	.	.	.	-5%	0%	5%	-16%
Cc1csc(NC(=O)c2cc(-c3ccccc3)nc3ccccc23)n1	?	?	?	-7.8%	-5%	-5%	?	?
COc1ccc(-c2cnc(SCC(=O)Nc3nc(C(C)(C)C)cs3)n2Cc2ccco2)cc1	?	?	13µM*	-13%	4%	-16%	17%	?
CCCCN1C(=O)C2NN=C(C(=O)OCC)C2C1=O (stereo not given)	-4%	7%	-21%	4.0%	5%	1%	-15%	23%
CSc1ccccc1NC(=O)c1cnc2n(c1=O)CCS2	-8%	.	.	-2.9%	-3%	6%	-17%	14%
O=C(NNC(=S)Nc1ccccc1)c1ccco1	-3%	?	6%	5.7%	2%	1%	-3%	26%
O=C(CSc1nnc(-c2ccco2)o1)NC1CC2CCC1C2 (stereo not given)	-7%	24%	14%	-3.7%	3%	0%	-5%	-9%
Cc1ccc(-c2nc(C)c(CCNS(=O)(=O)c3ccccc3F)s2)cc1	-10%	.	-13%[46.1 µM]	-10%	.	.	.	25%
CCC(C)NC(=S)N1CCN(Cc2ccc3c(c2)OCO3)CC1 (stereo not given)	.	?	0%	.	?	0%	0%	-15%
COc1ccc(-c2nc3c(c(=O)[nH]c(=O)n3Cc3ccccc3)n2Cc2ccccc2)cc1	?	?	?	-3.9%	19%	2%	-18%	?
CCN(CC)CC(=O)Nc1nc(-c2ccc(Cl)cc2)cs1	-10%	0%	-15%	-6.1%	0%	-4%	-9%	?
CC(C)COC(=O)OCN1C(=O)CN(CCN2CC(=O)N(COC(=O)OCC(C)C)C(=O)C2)CC1=O	?	?	-2%	-4.2%	11%[18.4 µM]	.	-38%	-19%
CCc1cccc2c(C#N)cn(CCOc3ccccc3OC)c12	8%	-21%	-17%	0.0%	5%	0%	-4%	0%
CCN1CCN(c2cc(-c3ccccc3)nc3cc(-c4cccc(F)c4)nn23)CC1	1%	?	?	-13%	24%	11%	-11%	?
COc1ccc(OC)c(CNS(=O)(=O)c2c(C(=O)N3CCCCCC3)c(C)n(C)c2C)c1	9%	.	2%[46.1 µM]	-2.2%	.	.	.	9%
CC(C(=O)OCC(=O)c1ccc(Br)cc1)N1C(=O)C2C3CCC(C3)C2C1=O (stereo not given)	.	-24%[46.1 µM]	?	.	8%	3%	-5%	7%
COc1ccccc1NC1=NC2(CCCC2)N=C(N)N1	-6%	0%	2%	3.5%	42%	3%	4%	-7%
CCCCn1c(N)c(N(CC(C)C)C(=O)c2cc(-c3ccc(OC)c(OC)c3)nc3ccccc23)c(=O)[nH]c1=O	.	-6%	18%[46.1 µM]	.	-9%	-1%	.	19%
O=C1NC(=O)N(Cc2ccccc2)C(=O)/C1=C\c1ccco1	.	12%[46.1 µM]	.	.	1%	2%	.	?
Clc1ccc(N2CCN(c3ncnc4c3oc3ccccc34)CC2)cc1	9%	1%	-4%	0.9%	-3%	-5%	?	.
Cc1ccccc1NC(=S)/C(=C(\[O-])c1ccc(C)c([N+](=O)[O-])c1)[n+]1ccccc1	-22%	0%	1%	-20%	-2%	-6%	-4%	-17%
